# Screens (PubChem BioAssay)
# Arbovirus anti – arbovirus infection inhibition; 0.37% of 200,000 active; inhibition, % at 10 µM; arbovirus infection cell-based antiviral screen;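 active means inhibition from about 30%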;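 further: bluetongue infection of BSR cells; cell survival read as ATP light after 72 h; 0% = infected wells without compound and 100% = uninfected wells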
# YopH inh – blocks Yersinia enterocolitica YopH tyrosine phosphatase. inhibition, %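 (about 10 µM by stock and volumes)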. fluorescence Ex485/Em525. AID 898. 0.16% of 140,000 active;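 active means inhibition of 50% or more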;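 further: controls were vehicle for no effect and minimum signal wells for full effect; inactives centre near -20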
# Mtb H37Rv – M. tuberculosis H37Rv growth inhibitors, H37Rv strain (AID 1626). M. tuberculosis H37Rv growth inhibition; higher % means a stronger effect. one-dose inhibition, % at 10 µM; IC50 in µM for titrated hits. 0.95% of 220,000 active;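 active means confirmed in a dose series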;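 further: bacteria incubated seven days before Alamar blue readout; 0% = bacteria only wells and 100% = bacteria with antibiotic wells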
# Mtb betalactam – beta-lactam sensitization of Mtb H37Rv; M. tuberculosis H37Rv growth with meropenem, percent inhibition; hits of this screen are not shown here; 0.27% of 330,000 active; inhibition, % at 25 µM;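 active means about 74% or more and at least 40 points above the plate without the antibiotic, then above 30% in a dose series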;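 further: growth measured after seven days incubation then overnight dye step; 0% = bacteria only wells and 100% = bacteria with antibiotic; twin plates without the antibiotic show which effects depend on it; some results filed as inactive read as strong as hits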
# RecA splice inh – Mtb RecA intein splicing inhibition; P9WHJ3; cell-free RecA intein splicing, fluorescence; inhibition, %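 (about 9 µM by stock and volumes)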; 0.75% of 290,000 active; AID 2221; in the data active means inhibition above about 30%;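 further: 0% = vehicle wells and 100% = reference inhibitor control wells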
# Target sequence (P9WHJ3 whole entry, looked up, canonical isoform): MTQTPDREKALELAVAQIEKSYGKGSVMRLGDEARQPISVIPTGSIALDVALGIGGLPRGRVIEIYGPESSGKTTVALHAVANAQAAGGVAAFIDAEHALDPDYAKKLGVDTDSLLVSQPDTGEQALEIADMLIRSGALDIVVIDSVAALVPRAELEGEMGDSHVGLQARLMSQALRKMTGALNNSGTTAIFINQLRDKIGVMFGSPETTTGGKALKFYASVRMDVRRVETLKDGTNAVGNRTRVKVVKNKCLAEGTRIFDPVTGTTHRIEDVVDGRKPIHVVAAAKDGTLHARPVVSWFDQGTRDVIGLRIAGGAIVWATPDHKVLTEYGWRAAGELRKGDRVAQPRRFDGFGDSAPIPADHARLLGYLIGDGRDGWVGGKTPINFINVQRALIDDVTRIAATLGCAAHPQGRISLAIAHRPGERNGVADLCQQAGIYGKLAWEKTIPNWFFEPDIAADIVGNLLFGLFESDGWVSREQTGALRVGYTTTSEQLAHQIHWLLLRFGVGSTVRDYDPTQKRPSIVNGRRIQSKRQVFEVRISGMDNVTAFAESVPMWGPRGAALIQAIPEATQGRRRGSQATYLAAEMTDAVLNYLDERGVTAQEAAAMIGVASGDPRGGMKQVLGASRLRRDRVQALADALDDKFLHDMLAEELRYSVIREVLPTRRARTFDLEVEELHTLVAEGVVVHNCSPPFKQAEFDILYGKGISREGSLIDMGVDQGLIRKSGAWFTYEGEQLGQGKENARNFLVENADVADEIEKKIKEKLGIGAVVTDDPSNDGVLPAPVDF
# Arbovirus anti repeat – also measured in Arbovirus anti; calls as there; inhibition, %; measured here: 10K subset replicate screen; many hits read low in the repeat;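 first of two repeat runs on a subset; 0% = infected and 100% = uninfected wells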
# The depositor's hits bear a star; nt = no result given. A portion of the library, so the mix of outcomes need not match the whole.
SMILES,Arbovirus anti,YopH inh,Mtb H37Rv,Mtb betalactam,RecA splice inh,others
Cc1oc(-c2ccc(Cl)cc2)nc1CN1CCC(C(=O)NCc2cccs2)CC1,4,7,-13%,-9,0.5,
Cc1ccc(C(=O)Nc2ccc(Cl)cc2C)c(Cl)c1,-7,nt,71%,98,4.6,
CCOC(=O)N/N=C(\C)c1ccc(C)o1,4,nt,-4%,-6,-1.6,
CSCC[C@H](NC(=O)N1CCn2c1nc1ccccc12)C(=O)NCc1ccc2c(c1)OCO2,nt,nt,nt,4,2.2,
CC(C)Cc1cc(C(=O)O)c2ccccc2n1,nt,-19,-6%,8,0.3,
Cc1c(N(C)C(=O)COc2ccc3ccccc3c2)c(=O)n(-c2ccccc2)n1C,nt,nt,nt,0,0.3,
O=C(Nc1ccc2c(c1)OCO2)C1CCCN1C(=O)Nc1cccc(F)c1 (stereo not given),2,-10,nt,14,-0.6,
Cc1ccccc1OCCNC(=S)Nc1ccccc1,4,-32,9%,-19,6.3,
COc1ccc(C2C(C#N)=C(N)Oc3n[nH]c(C)c32)cc1Cn1cc([N+](=O)[O-])cn1 (stereo not given),-8,-5,-2%,0,76*,
O=S(=O)(CCc1ccncc1)Cc1ccc2c3c(cccc13)CC2,nt,nt,-2%,-10,1.0,
CC(=O)Oc1cccc(C(=O)Nc2ccccc2NC(=O)c2cccc(OC(C)=O)c2)c1,nt,nt,nt,3,-0.5,
CCCSC1=NN2CCCC(=O)N=C2S1,15,nt,-4%,2,-2.8,
C=CCOc1ccc(/C(CC)=N/O)cc1OC,3,-14,-7%,7,2.0,
COCC(=O)NNC(=O)Cc1ccc(Cl)cc1,-5,nt,-4%,1,2.7,
O=C(Cc1ccc(Nc2nc(=S)[nH]c3ccccc23)cc1)NC1CCCCC1,0,nt,-3%,-13,-0.7,
O=C(NCCN1CCOCC1)c1cc(S(=O)(=O)Nc2ccccc2F)c(Cl)cc1Cl,nt,nt,8%,-3,-9.7,
COc1cc(/C=C/C(=O)CC(=O)/C=C/c2ccc(O)c(OC)c2)ccc1O,-16,10,8%,6,-0.6,
O=C(CN(c1ccc(F)cc1)S(=O)(=O)c1ccccc1)N1CCOCC1,nt,nt,nt,-6,-6.3,
O=C(N/N=C/c1ccc[nH]1)c1ccc(O)cc1,7,nt,-14%,-2,-2.8,
CN(Cc1ccccc1)C(=O)CCNC(=O)Cn1cnc2ccccc2c1=O,0,-12,-10%,0,-0.1,

# Pulled by compound from the entries so far:
SMILES,Arbovirus anti,YopH inh,Mtb H37Rv,Mtb betalactam,RecA splice inh,others
O=C(CN(c1ccc(F)cc1)S(=O)(=O)c1ccccc1)N1CCOCC1,nt,nt,nt,-6,-6.3,
CN(Cc1ccccc1)C(=O)CCNC(=O)Cn1cnc2ccccc2c1=O,0,-12,-10%,0,-0.1,
O=C(N/N=C/c1ccc[nH]1)c1ccc(O)cc1,7,nt,-14%,-2,-2.8,

# Other structures follow:
SMILES,Arbovirus anti,YopH inh,Mtb H37Rv,Mtb betalactam,RecA splice inh,others
CCCCOc1ccc(C(O)(CCN2CCOCC2)c2ccccc2)cc1 (stereo not given),nt,nt,nt,-8,3.7,
COc1cc(/C=N/NC2=NC(C)(C)Cc3ccccc32)cc(OC)c1OC,8,nt,-4%,4,1.9,
Cc1ccc(OCC(O)Cn2c(=N)n(CCN3CCOCC3)c3ccccc32)cc1 (stereo not given),-12,-40,6%,-8,-1.1,
COc1ccc(CN=C(N)N=C(N)N)cc1Cl,9,nt,4%,-7,0.1,
CCN(CC)C(=O)CSC(=Nc1ccccc1F)NC#N,0,-23,-4%,48,5.6,
C=CCn1c(/N=C/c2ccc3c(c2)OCO3)nc2ccccc21,2,-40,-5%,6,0.0,
COc1ccccc1/C=C/C=N/NC(=O)Cc1cccn1C,2,-30,-9%,8,-0.2,
Nc1nnc(SCC(=O)Nc2ccc3nc(SCC(=O)Nc4ccccc4)sc3c2)s1,-8,-21,14%,10,-0.5,
C/C(=N\NC(=O)C1(C)CC1(Br)Br)c1cccc(NC(=O)C2CCC2)c1 (stereo not given),2,-9,-3%,1,1.1,
COc1ccc(-n2nnnc2SCC(=O)N2CCCC2)cc1OC,3,-49,-14%,-4,-0.1,
COc1ccc(C)cc1NC(=O)CN(c1ccc(F)cc1)S(C)(=O)=O,-4,-28,4%,8,-1.6,Arbovirus anti repeat=-2
COc1cccc(OC)c1C(=O)Nc1c(C(=O)N2CCN(C)CC2)oc2ccccc12,nt,nt,nt,7,0.2,
COc1ccc(CN2CCNC(=O)C2CC(=O)NC2CCOCC2)c(F)c1 (stereo not given),nt,nt,nt,-1,-3.2,
CCCCCCCCSc1nnc(-c2ccc(OC)cc2)o1,17,17,54%,91,1.7,
Cc1ccc(NS(=O)(=O)c2ccc(C(=O)NCCCN3CCCC3=O)cc2)cc1C,nt,nt,nt,-5,-1.4,
c1ccc(-c2nnc(C3CC(c4ccncc4)=NO3)o2)cc1 (stereo not given),nt,nt,-3%,-3,-0.7,
COc1cccc(OCC(=O)NNC(=O)c2ccc(-c3ccccc3)cc2)c1,-11,-16,-6%,-16,1.5,
Cn1c(=O)oc2cc(S(=O)(=O)N3CCCC(C(=O)Nc4ccc5c(c4)OCCO5)C3)ccc21 (stereo not given),-3,-13,2%,2,nt,Arbovirus anti repeat=-3
COc1ccc(-c2nnc(-c3ccccc3O)o2)cc1,nt,nt,nt,2,0.6,
C=Cc1ccc(CN2CCCN(Cc3ccc(Cl)cc3)S2(=O)=O)cc1,nt,nt,nt,4,1.0,

# Reprinted from the part before: 6 entries, then new ones.
SMILES,Arbovirus anti,YopH inh,Mtb H37Rv,Mtb betalactam,RecA splice inh,others
Cc1ccc(NS(=O)(=O)c2ccc(C(=O)NCCCN3CCCC3=O)cc2)cc1C,nt,nt,nt,-5,-1.4,
c1ccc(-c2nnc(C3CC(c4ccncc4)=NO3)o2)cc1 (stereo not given),nt,nt,-3%,-3,-0.7,
COc1cccc(OCC(=O)NNC(=O)c2ccc(-c3ccccc3)cc2)c1,-11,-16,-6%,-16,1.5,
Cn1c(=O)oc2cc(S(=O)(=O)N3CCCC(C(=O)Nc4ccc5c(c4)OCCO5)C3)ccc21 (stereo not given),-3,-13,2%,2,nt,Arbovirus anti repeat=-3
COc1ccc(-c2nnc(-c3ccccc3O)o2)cc1,nt,nt,nt,2,0.6,
C=Cc1ccc(CN2CCCN(Cc3ccc(Cl)cc3)S2(=O)=O)cc1,nt,nt,nt,4,1.0,
CC(C)(C)NC(=O)COC(=O)/C=C/c1ccccc1[N+](=O)[O-],-3,6,-1%,-9,nt,
COc1ccc(-c2nc3ccccc3[nH]2)cc1,-27,-32,1%,11,11,
CCN(CC(=O)Nc1ccc2c(c1)OCCO2)S(=O)(=O)c1cccs1,1,-13,1%,-8,2.1,
Cc1cccc(OCCC(=O)NCC(c2ccco2)N2CCCCC2)c1 (stereo not given),-2,-11,-1%,5,0.7,
Cc1cc(OC(=O)c2ccco2)c2c(C)cc(=O)oc2c1,2,-18,2%,0,12,
COc1ccccc1OCCCCn1ncc2ccc(OC)c(OC)c2c1=O,nt,nt,nt,-6,-1.5,
NNc1nc2c(-c3cccc(C(F)(F)F)c3)nnn2c2ccccc12,nt,nt,nt,9,-2.5,
Nn1c(-c2cccc([N+](=O)[O-])c2)nc2ccccc2c1=O,nt,nt,nt,1,0.2,
CC(C(=O)NCCCc1ccccc1)c1ccc([N+](=O)[O-])cc1 (stereo not given),1,nt,11%,-6,0.1,
COc1ccccc1C(=O)NCc1ccccn1,-9,nt,0%,0,3.2,
O=C(O)CC1NC(=O)N(c2ccccc2)C1=O (stereo not given),7,-4,-10%,nt,0.5,
C=CCn1c(CCC(O)COCCC)n[nH]c1=S (stereo not given),-7,nt,2%,-6,-1.9,
O=C(N/N=C/C=C/c1ccco1)C(O)c1ccccc1 (stereo not given),nt,-16,9%,29,-1.4,
Cc1noc(/C=C/N(C)C)c1S(=O)(=O)N1CCC(C(=O)O)CC1,2,-18,4%,-3,-0.9,
CCCN(C(=O)c1cccc(S(=O)(=O)N2CCN(Cc3ccccc3)CC2)c1)C1CCS(=O)(=O)C1 (stereo not given),nt,nt,nt,-11,-0.5,
COc1cc2c(cc1OC)[C@@H](Cc1ccc(OCCC#N)cc1)N(C)CC2,nt,nt,nt,0,5.3,
CCC(C)NC(=O)CSc1nc2c(sc3ccccc32)c(=O)n1CCCN1CCOCC1 (stereo not given),-6,-31,-11%,10,2.2,
CC(=O)N(/N=C/c1cccc(C)c1)c1nc(-c2ccc(Br)cc2)cs1,13,-31,-6%,4,-4.8,
COc1ccc2c(C(=O)CN3CCN(c4ccccc4)CC3)c[nH]c2c1,3,-13,-4%,-19,3.6,
S=c1[nH]nc(C2CCCCC2)n1/N=C/c1ccncc1,12,nt,-2%,1,1.8,
O=C(NNC(=S)NC(=O)c1ccccc1[N+](=O)[O-])c1ccccc1Cl,-5,-22,-5%,-1,0.7,
Cc1ccc(SC(C)C(=O)Nc2ccncc2)cc1 (stereo not given),12,-8,1%,0,2.2,
Cc1c(CN(C)CCc2ccccc2)c(=O)n(-c2ccccc2)n1C,5,-15,-17%,3,4.0,
O=C(c1ccc(CS(=O)(=O)c2ccccc2)o1)N1CCN(c2ncccn2)CC1,1,-48,7%,-15,1.5,Arbovirus anti repeat=0
CCS(=O)(=O)c1ccc2oc(Nc3ccc(C(C)C)cc3)nc2c1,-10,-6,-76%,55,-0.7,
C=CCc1ccc(OCCOCCNCCOC)c(OC)c1,-6,-29,-8%,7,-0.2,
CC(C)c1ccc(NC(=S)NN2CCN(C)CC2)cc1,4,nt,-3%,2,-1.3,
COCCn1c(C)cc(C(=O)COC(=O)c2ccc[nH]c2=O)c1C,-2,-43,4%,-2,-1.9,
COc1cccc(C(=O)Cn2c(=O)n(CCC(=O)NCC3CCCO3)c(=O)c3cc(OC)c(OC)cc32)c1 (stereo not given),2,nt,-4%,-1,-10,
O=C(COc1cnc2ccccc2n1)NCCC1=CCCCC1,0,-5,-3%,-4,9.3,
CCOC(=O)NNc1ccc2nonc2c1[N+](=O)[O-],nt,nt,38%,75,nt,
Cc1cc(C)c2[nH]c(=O)c(C(c3nnnn3C(C)(C)C)N3CCN(C(=O)c4ccco4)CC3)cc2c1 (stereo not given),12,-27,-12%,12,-0.6,
O=C(NCc1ccc2c(c1)OCO2)c1ccc(CN2CCOCC2)cc1,0,9,1%,-14,-4.1,
NC(=S)Nc1ccc(F)cc1F,nt,nt,1%,-7,0.3,
CC1CCCCN1C(=O)CCS(=O)(=O)c1cc2c(cc1Cl)NC(=O)CO2 (stereo not given),nt,nt,nt,0,-4.0,
COc1ccc(CC(=O)NCC(c2ccc(OC)cc2)N(C)C)cc1 (stereo not given),-2,nt,10%,-3,-2.0,
Cc1cc(-c2ccc(C(=O)O)s2)cnc1N,2,nt,-7%,3,-8.1,
COc1ccc(N(CC(=O)Nc2ccc(OC)c(OC)c2)S(=O)(=O)c2ccccc2)cc1Cl,nt,nt,nt,-12,-0.7,
COc1ccc2cc(C(=O)NCc3ccco3)c(=Nc3ccc(C(=O)O)cc3)oc2c1,-2,4,-8%,-2,5.4,
COc1ccc(C2/C(=C(/O)c3ccc4c(c3)CC(C)O4)C(=O)C(=O)N2CCN2CCOCC2)cc1 (stereo not given),4,-5,-6%,4,-0.7,
CSc1ncccc1C(=O)OCc1c(F)cccc1Cl,nt,nt,nt,1,-1.8,
COC(=O)c1ccc(C2/C(=C(/O)c3ccc(OC(C)C)cc3)C(=O)C(=O)N2c2cc(C)on2)cc1 (stereo not given),-2,-37,-8%,-5,-0.6,
O=C(NCc1ccccn1)c1ccc(S(=O)(=O)Nc2ccccc2F)cc1,nt,nt,nt,1,1.1,
CN(C)c1ccc(-c2nc3cc(N)ccc3o2)cc1,nt,nt,nt,87,-45,
CC1CCN(S(=O)(=O)c2ccc3c(c2)N(CC(=O)N(C)Cc2ccco2)C(=O)CO3)CC1,nt,nt,nt,-1,0.1,
Cn1cc(C(=O)N2CCCCCC2)c(=O)c2cc(S(=O)(=O)N3CCCCC3)ccc21,nt,nt,nt,4,-1.2,
COc1ccc(OCC2CCCN(Cc3nc(CC4CC4)no3)C2)cc1 (stereo not given),5,nt,1%,1,-1.9,
Brc1ccc(Cn2c(-c3cncs3)nc3ccccc32)cc1,8,6,4%,1,0.5,
CC1CC(C)CN(C(=O)c2cn(C)c3ccc(S(=O)(=O)N(C)C)cc3c2=O)C1 (stereo not given),7,-38,-7%,-2,0.7,Arbovirus anti repeat=3
CC(C)(C)C(=O)NC1(C(F)(F)F)NC(=O)N(c2ccc(F)cc2)C1=O (stereo not given),8,nt,-4%,14,nt,
Cc1cc2c(c(=O)o1)C(c1ccc([N+](=O)[O-])o1)C(C#N)=C(N)O2 (stereo not given),nt,nt,-2%,-5,-14,
CSc1nnc(-c2ccc(C(F)(F)F)cn2)o1,nt,nt,1%,15,-0.9,
Cn1c(CN2CCCCC2)nc2cc(NS(=O)(=O)c3ccc(Cl)cc3)ccc21,12,-19,-1%,4,1.3,
